Mtb H37Rv: M. tuberculosis H37Rv growth inhibitors, H37Rv strain (AID 1626). M. tuberculosis H37Rv growth inhibition; higher % means a stronger effect. inhibition, % at 10 µM, or IC50 in µM where a hit was titrated. hit rate 0.95% among 220,000;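 active = confirmed in a dose series; inconclusive = inhibition above 80% but not taken into the dose series; inactive = below 80% or under 30% at every dose of the series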;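 also: bacteria incubated seven days before Alamar blue readout; 0% = bacteria only wells and 100% = bacteria with antibiotic wells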
Arbovirus anti: blocks arbovirus infection; arbovirus infection cell-based antiviral screen; inhibition, % at 10 µM; hit rate 0.37% among 200,000; AID 1251;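 active = inhibition from about 30%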;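 also: bluetongue infection of BSR cells; cell survival read as ATP light after 72 h; 0% = infected wells without compound and 100% = uninfected wells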
YopH PTP inh: inhibitors of Yersinia enterocolitica YopH tyrosine phosphatase; fluorescence Ex485/Em525; inhibition, %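 (about 10 µM by stock and volumes)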; hit rate 0.16% among 140,000; AID 898;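 active = inhibition of 50% or more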;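 also: controls were vehicle for no effect and minimum signal wells for full effect; inactives centre near -20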
Mtb bLac sens: beta-lactam sensitization of Mtb H37Rv; hit rate 0.27% among 330,000; inhibition, % at 25 µM; M. tuberculosis H37Rv growth with meropenem, percent inhibition; hits of this screen are not shown here;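 active = about 74% or more and at least 40 points above the plate without the antibiotic, then above 30% in a dose series; inconclusive = first-round hits that could not be retested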;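 also: growth measured after seven days incubation then overnight dye step; 0% = bacteria only wells and 100% = bacteria with antibiotic; twin plates without the antibiotic show which effects depend on it; some results filed as inactive read as strong as hits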
RecA splice inh: blocks M. tuberculosis RecA intein splicing. P9WHJ3. cell-free RecA intein splicing, fluorescence. inhibition, %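 (about 9 µM by stock and volumes)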. hit rate 0.75% among 290,000. AID 2221; in the data active = inhibition above about 30%; inconclusive = no clear call, values can overlap the other calls;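 also: 0% = vehicle wells and 100% = reference inhibitor control wells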
Target sequence (P9WHJ3 whole entry, looked up, canonical isoform): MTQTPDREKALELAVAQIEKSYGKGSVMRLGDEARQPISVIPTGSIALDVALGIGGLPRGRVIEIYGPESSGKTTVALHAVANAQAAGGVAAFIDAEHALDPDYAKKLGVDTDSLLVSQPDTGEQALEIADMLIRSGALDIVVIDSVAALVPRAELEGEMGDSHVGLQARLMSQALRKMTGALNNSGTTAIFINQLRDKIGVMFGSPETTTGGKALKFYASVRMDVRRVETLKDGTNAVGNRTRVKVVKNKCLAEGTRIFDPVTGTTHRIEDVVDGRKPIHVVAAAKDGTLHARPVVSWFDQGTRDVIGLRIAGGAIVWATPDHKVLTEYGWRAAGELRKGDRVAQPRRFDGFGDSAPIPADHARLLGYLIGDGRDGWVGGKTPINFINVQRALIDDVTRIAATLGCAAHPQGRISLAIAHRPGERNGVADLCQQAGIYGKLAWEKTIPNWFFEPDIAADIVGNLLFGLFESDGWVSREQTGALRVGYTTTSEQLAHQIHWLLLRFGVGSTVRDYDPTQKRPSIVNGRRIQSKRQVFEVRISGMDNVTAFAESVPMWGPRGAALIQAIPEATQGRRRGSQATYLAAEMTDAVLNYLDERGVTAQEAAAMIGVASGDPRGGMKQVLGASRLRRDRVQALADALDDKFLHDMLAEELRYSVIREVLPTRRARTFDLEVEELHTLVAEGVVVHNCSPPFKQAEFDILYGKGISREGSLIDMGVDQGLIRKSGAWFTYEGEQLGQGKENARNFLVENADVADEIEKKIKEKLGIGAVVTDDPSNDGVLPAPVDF
Arbovirus anti repeat: recorded beside Arbovirus anti, whose call it bears; inhibition, %; measured here: 10K subset replicate screen; many hits read low in the repeat;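 first of two repeat runs on a subset; 0% = infected and 100% = uninfected wells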
Active calls of the source: *; ? = inconclusive; nt = not tested or not shown.

SMILES	Mtb H37Rv	Arbovirus anti	YopH PTP inh	Mtb bLac sens	RecA splice inh	others
Cc1oc(-c2ccccc2F)nc1CSCC(=O)NC1CCC(C)CC1 (configuration not stated)	nt	nt	nt	1	2.7
COc1ccc(N(C)S(=O)(=O)c2cccc(C(=O)Nc3cc(OC)ccc3OC)c2)cc1	6%	-7	nt	-11	4.9
Cc1cc(C)c(C(=O)O)c(Cl)n1	-6%	5	nt	3	4.4
Clc1ccc(-c2cc(C3CCNCC3)[nH]n2)c(Cl)c1	-2%	-27	nt	-11	3.4
Cc1oc2c(c1C(=O)NCCO)CCCC2	1%	2	-6	-21	-0.2
Cc1ccc(NC(=O)CNc2cccc(S(=O)(=O)N3CCCCC3)c2)cc1F	nt	nt	nt	2	3.9
O=C(Cc1ccccc1)NNC1CC(=O)N(c2ccccc2)C1=O (configuration not stated)	1%	-1	-24	7	-2.9
N#C/C(=C\c1cccc2ccccc12)c1nn(-c2ccccc2)c(N)c1C#N	1%	nt	-25	2	-1.2
COc1cc(OC)cc(C(=O)NC(=S)N2CCCCC2c2cccnc2)c1 (configuration not stated)	nt	nt	nt	-2	-1.2
O=c1[nH]c(/C=C\c2cccc(F)c2)nc(O)c1[N+](=O)[O-]	nt	nt	nt	-2	1.0

No new results follow: 4 of the compounds above.
SMILES	Mtb H37Rv	Arbovirus anti	YopH PTP inh	Mtb bLac sens	RecA splice inh	others
O=C(Cc1ccccc1)NNC1CC(=O)N(c2ccccc2)C1=O (configuration not stated)	1%	-1	-24	7	-2.9
N#C/C(=C\c1cccc2ccccc12)c1nn(-c2ccccc2)c(N)c1C#N	1%	nt	-25	2	-1.2
COc1cc(OC)cc(C(=O)NC(=S)N2CCCCC2c2cccnc2)c1 (configuration not stated)	nt	nt	nt	-2	-1.2
O=c1[nH]c(/C=C\c2cccc(F)c2)nc(O)c1[N+](=O)[O-]	nt	nt	nt	-2	1.0

Carrying on.
SMILES	Mtb H37Rv	Arbovirus anti	YopH PTP inh	Mtb bLac sens	RecA splice inh	others
CC(=O)Nc1ccc(NC(=O)Cn2cnc3c(cnn3C(C)(C)C)c2=O)cc1	-2%	0	-32	11	-1.7
O=C(NCCCN1CCOCC1)c1c(O)c2ccccc2[nH]c1=O	-16%	3	-2	0	4.9
COC(=O)c1cc(=O)n2c(-c3ccc(OC)cc3)csc2n1	-12%	3	-41	-5	1.1
CCOc1ncccc1C(=O)OCC(=O)NCCc1ccc(OC)cc1	-4%	-2	-27	-15	-0.4
COc1ccc(S(=O)(=O)NCc2ccc3c(c2)OCO3)cc1OC	nt	nt	nt	-5	-0.5
CC(C)NC(=O)c1cccc(C(F)(F)F)c1	-2%	1	-30	-6	nt
Cc1ccc(C(C)(C)C)c(OCCCCN2CCCC2)c1	10%	9	-11	0	-2.4
COc1cc(/C=N/NC(=O)CCOc2ccccc2C)cc(Br)c1O	2%	3	nt	8	3.0
CS(=O)(=O)N1CCC(C(=O)Nc2ccccc2)CC1	-1%	0	-22	1	0.4
Cc1cc(Cl)cc2sc(NC(=O)C3CC3)nc12	nt	nt	nt	8	2.8
CN(C)/C=C(\C#N)S(=O)(=O)c1ccc(Cl)cc1	-6%	nt	nt	2	-0.6
Cc1cc(C)n(-c2nc(-c3ccccc3)cs2)n1	4%	-6	-3	0	5.3
Cc1ccc(N(Cc2cc3ccccc3[nH]c2=O)C(=O)c2cccs2)cc1	-5%	-3	-11	-6	0.4
Cc1ccc(C)c(OCC(=O)N/N=C\c2cccn2C)c1	-3%	1	nt	-5	-3.0
COc1ccc(-c2cccc(C(=O)Nc3cccc(C(=O)O)c3)c2)cc1	-9%	-4	-24	28	5.5
C=C(C)COc1ccc2c(C)c(CC(=O)N3C[C@H]4C[C@@H](C3)c3cccc(=O)n3C4)c(=O)oc2c1C	nt	nt	nt	-7	1.1
N#Cc1cc(Oc2cccnc2)c(Oc2cccnc2)cc1C#N	-12%	15	-34	-5	1.9
Cc1ccc(S(=O)(=O)Nc2ccc(N3CCN(C)CC3)nc2)cc1	-1%	2	nt	-6	-2.1
C=CCOc1ccc(/C=C/C(=O)OCC(=O)NCCCc2ccccc2)cc1	nt	nt	nt	-3	-0.6
CCCCc1c(O)nc(N2CCN(Cc3ccccc3)CC2)[nH]c1=O	7%	13	1	90	1.2
CCN1C(=O)/C(=C\c2cn(CCC#N)nc2-c2ccc(F)cc2)SC1=S	-6%	7	-21	0	-1.8
CCSc1nnc(Cc2cc(=O)[nH]c(=O)[nH]2)n1-c1cc(C)ccc1C	5%	0	-39	5	-0.7
COc1ccc(OC)c(NC(=O)c2nnn(CC(=O)Nc3ccc4c(c3)OCO4)c2N)c1	nt	nt	nt	0	-0.8
CC(C)S(=O)(=O)c1cnc(-c2ccccn2)nc1N	-4%	nt	nt	0	1.7
CC(C(=O)Nc1ccc(Cl)cc1)N1C(=O)NC2(CCCC2)C1=O (configuration not stated)	nt	nt	nt	1	1.3
Cc1ccc(N2C(=O)NC(=O)/C(=C\c3ccoc3)C2=O)cc1	-10%	5	nt	6	-0.6
CCOC(=O)c1ccc(NC(=O)c2nc[nH]c2C(=O)N2CCN(C(=O)OC(C)(C)C)CC2)cc1	21%	nt	nt	nt	-3.3
Cc1cccc(NC(=O)CCc2nnc3ccc(N4CCC(C)CC4)nn23)n1	nt	nt	nt	-5	-2.3
O=C(N/N=C/c1ccncc1)c1cc([N+](=O)[O-])cc([N+](=O)[O-])c1	0%	3	-22	9	-3.8
O=C(CNS(=O)(=O)c1ccccc1)Nc1cccc([N+](=O)[O-])c1	5%	1	nt	-13	-1.4
CCOC(=O)c1cnn(CCOC(=O)C2CC2)c1NC(=O)C1CC1	1%	5	-27	64	3.9
COc1cc2nc(CN(C)Cc3ccc(C(C)(C)C)cc3)[nH]c(=O)c2cc1OC	-6%	-4	nt	8	-0.2
COc1ccc(C(=O)Nc2c(N)nc(SCC(=O)Nc3ccc(C(C)=O)cc3)[nH]c2=O)cc1	nt	nt	nt	-9	-1.1
O=C(Nc1nc2ccccc2n1CCN1CCCC1)C1CCCCC1	-4%	-9	-27	nt	1.7
N#Cc1cc([N+](=O)[O-])c(-n2nnc3ccccc32)c([N+](=O)[O-])c1	-7%	6	-37	5	94*
COc1cc(/C(C)=N/NC(=O)CSc2nnc(C)s2)ccc1O	2%	nt	nt	2	-2.3
O=C(Nc1nnc(-c2ccc(Br)cc2)o1)c1ccco1	nt	nt	nt	96	-0.8
CCN1CCN(C(=O)c2ccc(N3CC4CC(C3)c3cccc(=O)n3C4)c([N+](=O)[O-])c2)CC1 (configuration not stated)	-3%	7	nt	1	4.3
CCOC(=O)c1c(C)[nH]c(=S)c(C#N)c1-c1ccc(Cl)cc1	1%	-12	-20	-1	2.2
Cc1ccc(NC(=O)N(Cc2ccco2)C(C)c2ccco2)cc1C (configuration not stated)	12%	1	-16	5	6.7
COc1cc(CC(NC(C)=O)C(=O)NC2CCN(c3c4c(nc5ncnn35)CCC4)CC2)cc(OC)c1 (configuration not stated)	0%	-5	nt	-1	0.6
Cc1ccc2c(COC(=O)c3ccccc3OC(F)F)cc(=O)oc2c1	nt	nt	nt	0	1.1
O=C(O)COc1ccc2c(c1)CCCC2	3%	0	-60	10	nt
COc1cccc2cc(-c3ccnc(=S)[nH]3)oc12	11%	-6	nt	-8	1.5
O=C(COc1ccc(Cl)cc1)OCC(=O)N1CCCc2ccccc21	-13%	-7	-20	2	10
C=C1CCC[C@]2(C)C[C@H]3OC(=O)C(CNCC(OC)OC)[C@H]3CC12 (some centres not stated)	nt	nt	nt	0	-1.7
O=C(Nc1cccc2c1CCCC2)c1cccc(F)c1	nt	nt	nt	1	2.1
C=CCSc1nc(N)cc(=O)[nH]1	-3%	nt	nt	-7	-2.9
Fc1ccc(-c2noc(-c3ccc4c(c3)CCO4)n2)cc1	-10%	nt	nt	2	1.7
CCC1(C)Cc2sc3c(=O)[nH]c(=S)[nH]c3c2CO1 (configuration not stated)	-7%	6	nt	-2	7.3

(list continues)
SMILES	Mtb H37Rv	Arbovirus anti	YopH PTP inh	Mtb bLac sens	RecA splice inh	others
COc1ccc(-c2cc(CNS(=O)(=O)c3ccc(NC(C)=O)cc3)on2)cc1	nt	nt	nt	-11	2.6
O=[N+]([O-])c1ccccc1OC/C(=N\O)c1ccccc1	nt	nt	nt	0	-2.7
CS(=O)(=O)N(CC(=O)N1CCN(Cc2ccc3c(c2)OCO3)CC1)c1ccc2c(c1)OCO2	-5%	-3	-5	-1	-0.1
O=C(O)CCNC(=O)c1cncc(Br)c1	-7%	-1	-11	13	1.5
N#CSC(c1ccccc1)c1nc2ccccc2[nH]c1=O (configuration not stated)	nt	nt	nt	-1	0.0
COc1ccc(-c2nnnn2-c2ccc(F)cc2F)cc1	-1%	-1	nt	-2	1.0
COc1ccccc1N(CC(=O)N1CCCCCC1)S(C)(=O)=O	2%	10	-19	-2	-1.5	Arbovirus anti repeat=3
O=C(Nc1ccccc1)c1ccc(CN2CCc3ccccc3C2)cc1	2%	0	nt	-8	8.7
CSc1nc2c(c(=O)n1-c1ccccc1)SCC2	0%	-3	-3	-1	2.0	Arbovirus anti repeat=0
Cc1cc(C(=O)N/N=C/c2ccccc2[N+](=O)[O-])c(C)o1	20%	-1	nt	5	-1.5
O=S(=O)(c1ccccc1)N(CC(O)COc1ccccc1)c1ccccc1 (configuration not stated)	-13%	nt	nt	-5	4.0
O=C(CCc1ccc(CCC(=O)c2cccs2)s1)c1cccs1	23%	-5	-27	-7	5.1
C=CCN(C(=O)c1csnn1)C(C(=O)NC1CCCCC1)c1ccccc1F (configuration not stated)	nt	nt	nt	-7	0.8
CN1N=C(C(C)(C)C)CC1=O	-8%	nt	nt	-9	36*
CCc1ccccc1NC(=O)c1ccc(-c2csc(C)n2)cc1	nt	nt	nt	-12	0.4
C[C@@H](NC(=O)c1nc[nH]c1C(=O)N[C@@H](Cc1ccccc1)C(=O)OC(C)(C)C)c1ccccc1	-10%	-19	nt	-14	4.4
Cc1ccc(S(=O)(=O)N2CCOCC2)cc1NC(=O)COC(=O)c1ccccc1OCc1c(C)noc1C	4%	4	-15	6	-3.8
CCOC(=O)/C(C#N)=C/c1cc2ccc(C)cc2nc1Cl	-7%	-5	-15	7	1.8
O=C1N[C@@H](Cc2ccccc2)C(=O)N2[C@@H]3N(S(=O)(=O)c4ccccc4)c4ccccc4[C@]3(Br)C[C@@H]12	-7%	nt	nt	-3	8.6
COc1cc2c(cc1OC)C1Cc3ccc(OC)c(OC)c3C[N+]1([O-])CC2 (configuration not stated)	-11%	nt	nt	-4	-2.4
Cc1cc(O)c(NC(=O)c2ccco2)cc1C	-6%	7	4	-3	0.5
O=C(/C=C/c1ccc(F)cc1)NC(=S)N1CCOCC1	0%	-3	nt	-1	3.2
CC1Oc2ccccc2C=C1/C=N/NC(=O)c1ccncc1 (configuration not stated)	?	nt	nt	99	-7.0
Cc1cc(O)c(CN(C)C)c2c1C(=O)/C(=C/c1ccco1)O2	nt	nt	nt	3	-15
COc1cc(=O)n(C)c2cc(N(C)C)ccc12	5%	1	26	0	13
CCN1CCCC1CNS(=O)(=O)c1cccc(C(F)(F)F)c1 (configuration not stated)	-1%	-9	nt	-3	0.7
CC1CCCC(C)N1C(=C(Cl)Cl)C(=C1SCCS1)[N+](=O)[O-] (configuration not stated)	-4%	-16	nt	0	nt
COc1ccc(NC(=O)c2cc(-c3cc(C)cc(C)c3O)n[nH]2)cc1Cl	0%	-37	-44	70	-1.6
O=C(CC(c1ccccc1)c1ccccc1O)N1CCCC1 (configuration not stated)	-23%	1	-5	4	-0.3
COc1ccc2oc(=O)c(-c3csc(Nc4cccc(O)c4)n3)cc2c1	4%	-32	-36	-6	-46
CC(=O)c1cn(CC(=O)Nc2ccccc2C)c2ccccc12	-9%	11	3	-4	-2.1
NCCCCNCCCN	1%	nt	nt	0	0.6
COCc1cc(C)nc(SCC(=O)Nc2ccc3c(c2)n(C)c(=O)n3C)c1C#N	nt	nt	nt	-10	-0.4
COc1ccc([N+](=O)[O-])cc1C1NN=C(c2ccccc2O)S1 (configuration not stated)	-5%	-2	-2	nt	-0.5
C[C@]12CCC(=O)CC1=CCC1C3CC=C(C#N)[C@@]3(C)CC[C@@]12O (some centres not stated)	nt	nt	nt	-4	-0.8
COc1ccc(Nc2sc(C(=O)Nc3cccc(Cl)c3)c(N)c2C(=O)Nc2ccccc2OC)cc1	14%	3	-3	-1	6.2
Cc1ccc(S(=O)(=O)NCCN=C(CN2CCCC2)NS(=O)(=O)c2ccc(C)cc2)cc1	-8%	-7	-3	-6	nt
O=C1c2cccnc2C(Nc2ccccc2)N1Cc1ccco1 (configuration not stated)	-16%	6	-29	-9	7.9
O=C(Cc1c(O)c2ccccc2[nH]c1=O)NC1CCCCCCC1	-3%	6	-31	4	-1.3
CCCNC(=S)N1CCC(C(=O)c2ccc(F)cc2)CC1	nt	nt	nt	3	-1.0
COc1ccc(CNC(=O)COc2ccc(S(=O)(=O)N3CCCCC3)cc2Cl)cc1	nt	nt	nt	2	17

Bioassay records from PubChem.

Not all compounds are listed (hit frequency here may not be typical).
